Source: PubChem BioAssay (National Center for Advancing Translational Sciences (NCATS))
VDR inhibitor = Inhibitors of the vitamin D receptor (VDR): qHTS; Vitamin D3 receptor (Homo sapiens), P11473; VDR-SRC2-3 peptide fluorescence polarization, 2 h; Potency, µM, inactives show max response, negative = inhibition, hits mostly inhibitors; actives 0.93% (n = 400,000); AID 504847, 2011; active = well fitted inhibition curve with a large enough effect; inconclusive = small, poorly fitted or top-dose-only effect, or another doubt; inactive = no such curve, though single readings can be large or run the other way; note: series mostly up to about 120 µM
Target sequence (P11473 whole entry, looked up): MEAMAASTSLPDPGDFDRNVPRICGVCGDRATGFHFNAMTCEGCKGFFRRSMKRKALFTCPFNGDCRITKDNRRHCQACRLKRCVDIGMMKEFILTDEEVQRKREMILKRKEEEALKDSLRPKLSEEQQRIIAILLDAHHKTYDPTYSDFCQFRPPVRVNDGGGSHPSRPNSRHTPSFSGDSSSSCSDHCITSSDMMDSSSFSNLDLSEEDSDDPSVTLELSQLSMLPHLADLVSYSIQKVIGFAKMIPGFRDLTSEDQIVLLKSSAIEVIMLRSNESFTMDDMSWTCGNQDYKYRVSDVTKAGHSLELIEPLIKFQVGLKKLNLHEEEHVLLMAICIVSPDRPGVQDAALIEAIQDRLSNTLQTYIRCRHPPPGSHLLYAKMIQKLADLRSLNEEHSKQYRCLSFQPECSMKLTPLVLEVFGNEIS
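Compounds are added to VDR with labelled SRC2-3 coactivator peptide and held 2 h at room temperature. Inhibition of the VDR–peptide interaction is then read as a change in fluorescence polarization.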
Active calls of the source: *; ? = inconclusive; & = joins results of further samples. % is set by controls: 0 for no effect and ±100 for the full control effect; potency is the fitted concentration of half-maximal effect. Not all compounds are listed; count on the stated rates, not on these rows.

SMILES | VDR inhibitor
CCOC(=O)CN1C(=O)S/C(=C/c2cccc([N+](=O)[O-])c2O)C1=O | 7%
Cc1ccc(N/C=C/C(=O)c2cccs2)cc1C | 10%
Cc1onc(-c2ccccc2Cl)c1C(=O)NNC(=O)c1cccc(F)c1 | -10%
CC(=O)N1c2ccc(S(=O)(=O)NCCC(=O)NCc3ccc(F)cc3)cc2CC1C (centres undefined) | ?
CCCOc1ccc(C2/C(=C(/O)c3ccc(F)cc3)C(=O)C(=O)N2CCCN(C)C)cc1 (centres undefined) | -11%
CCCN(CCC)CCNC(=O)CN1C(=O)COc2ccc(S(=O)(=O)N3CCOCC3)cc21 | 1%&-4%
Cc1ccc(-c2nc(C3CCCN(S(=O)(=O)c4ccc(C(F)(F)F)cc4)C3)no2)cc1 (centres undefined) | 19%
CC(=O)Nc1ccc(NC(=O)CSc2nccn2Cc2ccc(Cl)cc2)cc1 | 8%
C/C(=N\NC(=O)c1cc2ccccc2cc1O)c1ccc(C)o1 | -7%
O=C(NCC(c1cccnc1)N1CCN(Cc2ccccc2)CC1)C(=O)Nc1ccc(Cl)cc1 (centres undefined) | 4%
Cc1ccc(C2(C(F)(F)F)N=C3Sc4cc(C)cc(C)c4N3C(=O)N2)cc1 (centres undefined) | 3%
COc1ccc(Nc2nn3c(=O)c4cc5c(cc4nc3s2)OCO5)c(OC)c1 | 14%
O=C(CCNC(=O)c1ccc([N+](=O)[O-])cc1)Nc1ccc(F)c(F)c1F | 21%
C/C(CC(=O)Nc1ccc(Cl)c(Cl)c1)=N\NC(N)=S | -8%
O=C(OCc1cc(=O)n2cc(Br)ccc2n1)C1COc2ccccc2O1 (centres undefined) | 2%
CCc1ccc(/C(C)=N/NC(=O)c2c[nH]c3ccccc23)s1 | -16%
COc1ccccc1-c1n[nH]c(=S)n1N | -12%
Cc1nc2cc(NC(=O)NCCC3=CCCCC3)ccc2o1 | -4%
COc1ccc(OC)c(C(=O)NC(CC(N)=O)c2ccc(NCCN3CCOCC3)c([N+](=O)[O-])c2)c1 (centres undefined) | 4%
O=C1CSC(=S)N1c1cccnc1 | -11%
CCc1ccc(Oc2nnnn2-c2ccc(C(N)=O)cc2)cc1 | 5%
NC(=O)c1ccsc1NC(=O)c1ccc(N2CCCC2=O)cc1 | -10%
CCN(Cc1nc2cc(OC)c(OC)cc2c(=O)[nH]1)C(=O)c1ccc(S(=O)(=O)N(C)C)cc1 | -5%
O=C(COc1ccc(Cl)cc1)Nc1ccc2nc(SCC(=O)N3CCOCC3)sc2c1 | -2%
Cc1ccccc1CS(=O)(=O)c1cnc2ccccc2n1 | 26%
CCCCC(=O)Nc1ccc(NC(=O)CCCC)nc1 | 2%
Cc1oc(-c2cccc(Cl)c2)nc1CN1CCCC(C(=O)NCCCN2CCOCC2)C1 (centres undefined) | -16%
COc1ccc(C(=O)NCc2ccc(-c3nc4ccccc4s3)cc2)cc1 | -8%
CNC(=O)c1ccccc1S(=O)c1ccccc1C#N (centres undefined) | -14%
COc1cccc(NC(=O)CCc2c(C)nc3ncnn3c2C)c1 | -12%
Cc1onc(-c2ccccc2)c1C(=O)Nc1ccc(S(=O)(=O)N2CCCC2)cc1 | -9%
CCOc1cc(S(=O)(=O)N(CC)CC)ccc1Br | -2%
CCN(C(=O)CN1C(=O)NC2(CCc3ccccc32)C1=O)C1CCCCC1 (centres undefined) | 27%
O=C(N/N=C(\CC(=O)c1cccs1)C(F)(F)F)c1cccnc1 | -11%
CCCOc1ccc(N2C(=O)CC(N(Cc3ccc(S(N)(=O)=O)cc3)C(=O)CC)C2=O)cc1 (centres undefined) | 2%
CC(=O)c1ccc(NC(=O)CCn2c(=S)oc3ccccc32)cc1 | -5%
Nc1nc(CSc2ccc(Cl)cc2)nc(N2CCCCC2)n1 | -10%
CCOC(=O)N1CCC(=NNC(=O)c2ccccc2F)CC1 | -3%
Cc1ccc(NC(=O)c2ccccc2OCC(=O)c2ccc(F)cc2)cc1 | -7%
O=C(O)/C=C/C(=O)N1Cc2cc3ccccc3nc2C1 | -10%
CC(C)Sc1nc2sccc2c(=O)n1-c1ccccc1 | 10%
C=CCn1nnnc1-c1cc(Cl)cc(Cl)c1 | -8%
Cn1c(SCCCC(=O)c2ccccc2)nnc1-c1ccncc1 | -6%
CCOc1ccc2nc(NC(=O)Cn3c(C)csc3=O)sc2c1 | ?
O=C(NC(=S)Nc1ccc(S(=O)(=O)Nc2ncccn2)cc1)c1ccc(Br)cc1 | 0%
COc1cccc(-c2nnc3sc(-c4ccccn4)nn23)c1 | -13%
CCCc1cc(C(N)=O)c(NC(=O)c2ccoc2C)s1 | -5%
CCCCn1c(NCCO)nc2ccccc21 | -2%

Arranged by count of non-hydrogen atoms (falling): part of the list above.
SMILES | VDR inhibitor
O=C(NC(=S)Nc1ccc(S(=O)(=O)Nc2ncccn2)cc1)c1ccc(Br)cc1 | 0%
COc1cccc(-c2nnc3sc(-c4ccccn4)nn23)c1 | -13%
O=C(O)/C=C/C(=O)N1Cc2cc3ccccc3nc2C1 | -10%

Further structures.
SMILES | VDR inhibitor
COc1cc(-c2cc(N)n(S(=O)(=O)c3ccc(F)cc3)n2)cc(OC)c1OC | -7%
COc1cc(NC(=O)NCCN2CCN(c3ccc(Cl)cc3)CC2)ccc1C | 7%
O=C1N[C@@H](Cc2ccccc2)COC(=O)[C@@H](Cc2ccc(F)cc2)C/C=C\C[C@@H]1CC(=O)N(CCO)Cc1ccccc1 | -7%
O=S1c2ccccc2Nc2ccccc21 | ?
CC(=O)N1CCc2c(sc(NC(=O)C3CCN(S(=O)(=O)c4cccs4)CC3)c2C(N)=O)C1 | -14%
Cc1cccc(-n2ccnc2SCC(=O)Nc2cccc3ccccc23)c1C | 21%
O=C(NCCc1ccc(Cl)cc1)c1ccc(=O)[nH]c1 | -4%
COC(=O)CCC(NC(=O)c1cc(C)oc1C)C(=O)OC (centres undefined) | -16%
O=C1Oc2ccccc2C(=O)/C1=C/c1ccccc1O | ?
CC1(C2CC2)NC(=O)N(CC(=O)N2CCN(c3ccccc3)CC2)C1=O (centres undefined) | 21%
COc1cccc(NC(=O)N2CCN(C(=O)c3nsc4ccccc34)CC2)c1 | 9%
Cc1c(NC(=O)Nc2cccc(Cl)c2)c(=O)n(-c2ccccc2)n1C | 3%

Seven compounds already listed, sorted by their value in VDR inhibitor, low to high:
SMILES | VDR inhibitor
COC(=O)CCC(NC(=O)c1cc(C)oc1C)C(=O)OC (centres undefined) | -16%
CC(=O)N1CCc2c(sc(NC(=O)C3CCN(S(=O)(=O)c4cccs4)CC3)c2C(N)=O)C1 | -14%
O=C1N[C@@H](Cc2ccccc2)COC(=O)[C@@H](Cc2ccc(F)cc2)C/C=C\C[C@@H]1CC(=O)N(CCO)Cc1ccccc1 | -7%
O=C(NCCc1ccc(Cl)cc1)c1ccc(=O)[nH]c1 | -4%
Cc1c(NC(=O)Nc2cccc(Cl)c2)c(=O)n(-c2ccccc2)n1C | 3%
COc1cc(NC(=O)NCCN2CCN(c3ccc(Cl)cc3)CC2)ccc1C | 7%
CC1(C2CC2)NC(=O)N(CC(=O)N2CCN(c3ccccc3)CC2)C1=O (centres undefined) | 21%

New compounds follow:
SMILES | VDR inhibitor
Cc1ccc(C(=O)c2oc3ccccc3c2N)cc1 | -11%
CN(Cc1cnn(C)c1)C(=O)C1CCCCC1C(=O)O (centres undefined) | ?
COc1ccc(N2CCN(C(=O)c3ccc(COc4ccc([N+](=O)[O-])cc4)o3)CC2)cc1 | 6%
COc1cc(/C=C/c2cc[n+](C)cc2)ccc1OCC(=O)Nc1ccccc1 | -15%
COc1ccc(S(=O)(=O)N2CCOCC2)cc1Cl | -2%
CCN1CCN(C(=O)CCCCCn2c(=O)[nH]c3cc(C(=O)OC)ccc3c2=O)CC1 | -9%
CCc1nnc(NC(=O)CCC(=O)N2CCN(C3CCCCC3)CC2)s1 | 0%
COc1cc(NC(=O)CSc2ncnc3sc4c(c23)CCCC4)c(C(=O)O)cc1OC | -21%
CC1=NN(c2ccccc2)C(=O)/C1=C\c1ccc(Oc2ccc([N+](=O)[O-])cc2[N+](=O)[O-])cc1 | ?
NC(=O)CC(NC(=O)Cc1ccc(Cl)cc1)c1ccc(NC2CCCC2)c([N+](=O)[O-])c1 (centres undefined) | -6%
COc1ccc(S(=O)(=O)c2c(Nc3ccc(C)cc3)sc(C(=O)c3ccc(C)cc3)c2N)cc1 | 5%
CCC(=O)Nc1ccc(C(=O)COC(=O)c2sc(C)nc2C)cc1 | -15%
CC12COC3(C(=O)Nc4ccc(Cl)cc4)CC1CCC32C (centres undefined) | 12%
Cc1ccc(CNC(=O)C2=NNC(=O)CC2)cc1 | 3%
CCOC(=O)c1c[nH]c2cc(OCC(C)C)c(OCC(C)C)cc2c1=O | 3%
COc1ccc(N=Cc2c(O)n(-c3cccc(C)n3)c(=O)c3ccccc23)c(OC)c1 | 19%
CC1(C)CN(c2ccc(-c3ccnc4ncnn34)cc2)C1=O | -8%
CCN(C(=O)COC(=O)c1ccccc1OCc1ccc(Cl)cc1)C1CCS(=O)(=O)C1 (centres undefined) | 0%
CCc1nn(CC(=O)Nc2cccc(C)c2C)c(=O)c2cc3sccc3n12 | -9%
Cc1ccc(-c2nc3ccccc3[nH]2)cc1NC(=O)c1ccco1 | 7%
CCC(=O)N1c2ccc(S(=O)(=O)CCC(=O)N3CCN(c4ccccc4F)CC3)cc2CC1C (centres undefined) | -11%
Cn1ccc(C(=O)OCC(=O)c2ccccc2)n1 | 4%
O=C(COC(=O)c1cc(S(=O)(=O)N2CCOCC2)ccc1F)NC1CCCCC1 | -16%
O=C(NCCC1=CCCCC1)C1CCN(c2nc3ccccc3o2)CC1 | 8%
Cc1cccc(NC(=O)C2CCN(S(C)(=O)=O)CC2)c1C | 5%
CCOC(=O)CN1C=C(c2ccc3ccccc3n2)C(C[N+](=O)[O-])c2ccccc21 (centres undefined) | 5%
Cc1c(C)c(C)c(C(=O)C2CCN(c3ccc([N+](=O)[O-])cn3)CC2)c(C)c1C | -21%
COc1ccc(NC(=O)CSc2nc(N3CCCCC3)nc(N3CCCCC3)n2)cc1 | 8%
Cc1occc1C(=O)N1CCCC(N2CCN(c3cccc(C(F)(F)F)c3)CC2)C1 (centres undefined) | 18%
COC(=O)c1c(NC(=O)c2nc(SCc3cccc(C)c3)ncc2Cl)sc2c1CCCC2 | 0%
COc1ccccc1NC(=O)Cn1ncc2c1-c1ccccc1OC2 | -10%
CCCCNC(=O)N1CCN(C(c2ccccc2)c2ccccc2)CC1 | -27%
COc1ccc2c(c1)CC/C2=N\NC(=O)c1ccccc1 | -20%
Cc1occc1C(=O)N/N=C/C=C\c1ccccc1[N+](=O)[O-] | -22%
CC(C)NC(=O)N1CC[C@@]2(CCCN(C(=O)c3cccc(F)c3)C2)C1 | 3%
C/C(CC1CC2=C(CC1(C)C)C(C)(C)CCC2)=N\NC(N)=S (centres undefined) | 79µM*
Cc1nn(CCCC(=O)NCc2ccccc2)c(=O)c2cc3sccc3n12 | 8%
O=S(=O)(c1ccc(Br)s1)N1CCN(c2ccccc2)CC1 | -19%
COc1ccc(NC(=O)C2=CC(c3ccc4c(c3)OCO4)=NS(=O)(=O)N2C)cc1 | 9%
CCOC(=O)c1cc(-c2ccncc2)nc2c1c(C)nn2-c1ccccn1 | 4%
O=S(=O)(c1cccc(Cl)c1)n1c(/C=C/c2ccccc2Cl)nc2ccccc21 | -8%
O=C(O)CCC(=O)NCc1cn(-c2ccccc2)nc1-c1cccc(Br)c1 | -10%
CCCCCn1c(N2CCN(c3cccc(Cl)c3)CC2)nc2c1c(=O)[nH]c(=O)n2C | 3%
COc1ccccc1N1CCN(C(=O)COc2cc(C)ccc2C)CC1 | 40µM*
Brc1ccc(N=C(c2ccccc2)c2ccncc2)cc1 | -15%
O=C(NCc1ccccc1)c1cccn1-c1nnc(N2CCCC2)s1 | 5%
CC(C)(C)c1ccc(OCc2ccc(C(=O)NN)o2)cc1 | -10%
Cc1ccc(S(=O)(=O)C2(S(=O)(=O)c3ccc(C)cc3)CCCC2)cc1 | -11%
CCOC(=O)CSc1nc2sc3c(c2c(=O)[nH]1)CCCC3 | 5%
CCCCN(Cc1ccccc1)C(=O)C1CCC(=O)N(CCc2ccccn2)C1 (centres undefined) | 6%
CCOC(=O)c1cccc(NC(=O)Nc2cc(OC)ccc2OC)c1 | 8%
CC1(C)C(=O)C=CC(=O)C(C)(C)C(=O)C=CC(=O)C(C)(C)C2=CC=C(O2)C(C)(C)C(=O)C=CC1=O | ?
CCCc1cc(C(=O)Nc2nccs2)cs1 | -14%
C[C@H](CO)N1C[C@H](C)[C@@H](CN(C)C(=O)Nc2ccc(C(F)(F)F)cc2)Oc2c(NC(=O)Cc3ccccc3)cccc2C1=O | -11%
COc1ccc2nc(NCCCNC(=O)c3cc(OC)c(OC)c(OC)c3)c(C#N)cc2c1 | -19%
C[n+]1ccccc1/C=C/c1ccccc1Cl | -1%
Cc1sc2ncnc(SCC(=O)NC(=O)NCc3ccco3)c2c1C | 2%
CCCC(=O)Nc1cc(C(=O)O)ccc1Sc1ccccc1 | 4%
CN(CC(=O)Nc1ccccc1C(F)(F)F)C(=O)CSCc1ccc(Cl)c(Cl)c1 | -17%
CCOc1ccc(/C=C2\C(=O)c3ccccc3OC2c2ccccc2)cc1 (centres undefined) | -8%
The list goes on.
SMILES | VDR inhibitor
C=CCOc1c(Cl)cc(CNCCC)cc1Cl | -1%
O=C(NC12CC3CC(CC(C3)C1)C2)c1cccc([N+](=O)[O-])c1 | -2%
CCOc1cc(/C=C2/NC(=O)N(CC(=O)Nc3cccc(C)c3)C2=O)ccc1OC | 1%
COc1ccc(CNC(=O)CCc2nc3cccnc3n2Cc2ccc(OC)cc2)cc1 | 3%
CCOC(=O)N1CCC(N(CCN(C)C)C(=S)Nc2cccc(Cl)c2)CC1 | 17%
COc1ccc(-n2ccnc2SCC(=O)NO)cc1 | -12%
